# Vaccinia Venus = qHTS for Stage-Specific Inhibitors of Vaccinia Orthopoxvirus: Venus Reporter Primary qHTS; Vaccinia virus Venus reporter expression, fluorescence; 0.46% of 330,000 active; Potency, µM (top dose mostly 36.5 µM), inactives show top-dose activity change, negative = inhibition, usual class: inhibitors; active means well fitted inhibition curve with a large enough effect; inconclusive means small, poorly fitted or top-dose-only effect; inactive means no such curve, though single readings can be large or run the other way; tested in A549 cells; note: nearly all actives have a fitted effect of over 30% in size; inactives centre near -10
# Vaccinia mCherry = qHTS for Stage-Specific Inhibitors of Vaccinia Orthopoxvirus: mCherry Reporter Primary qHTS. Vaccinia virus mCherry reporter infection, fluorescence; about a quarter of the inactives have no number. Potency, µM (titrated, usually from 36.5 µM), without a hit: at the top dose activity change, negative = inhibition, usual class: inhibitors. 0.63% of 310,000 active; active = well fitted inhibition curve with a large enough effect; inconclusive = small, poorly fitted or top-dose-only effect; inactive = no such curve, though single readings can be large or run the other way; tested in A549 cells; note: nearly all actives have a fitted effect of over 35% in size; inactives centre near -10
# * hit, by the source's call; i = inactive; ? = inconclusive; . = no result given; & = joins results of further samples. % is set by controls: 0 for no effect and ±100 for the full control effect; potency is the fitted concentration of half-maximal effect. Rows were taken by chance; any-hit rate near 0.86%.
SMILES,Vaccinia Venus,Vaccinia mCherry
COc1ccc(NC(=S)N2CCC(C(=O)N3CCCCCC3)CC2)cc1,-8%,-18%
COC(=O)C1=C(C)NC(C)=C(C(=O)OC)C1c1ccc(OC(=O)c2oc3ccccc3c2C)c(OC)c1,-21%,-11%
CC(=O)Cc1nsc(NC(=O)c2ccc(COc3ccccc3C)o2)n1,5%,-3%
COc1ccc(Cc2nc3ccccc3[nH]c2=O)cc1,1%&-1%,0%&-9%
Cc1ccccc1NCCC(=O)Nc1ccc(Cl)cc1,-10%,?
CCN1CCN(C(=O)CS(=O)(=O)Cc2nc(-c3ccccc3C)oc2C)CC1,-16%,-13%
Cc1cccc(-n2nnc(C(=O)NCc3ccccc3Cl)c2N)c1,-19%,-11%
COc1ccc(NC(=O)CCN2C(=O)C3C4CCC(C4)C3C2=O)cc1 (stereo not drawn),0%,-8%
O=C(COC(=O)/C=C/c1ccc(Cl)cc1Cl)NCc1ccco1,-3%,-5%
COC(=O)Cn1c(O)c(N=NC(=O)c2ccc3c(c2)OCO3)c2ccccc21,-5%,-7%
Cc1cc2c(n1-c1ccc(Cl)cc1)CC(C)(C)CC2=O,-10%,-18%
COC(=O)c1ccc(CNC(=O)C(Cc2ccccc2)NC(=O)c2ccccc2)cc1 (stereo not drawn),-20%,i
COc1ccc(C(=O)c2c3ccccc3[n+]([O-])n2CCC(N)=O)cc1,0%,-4%
Cc1ccc(OCc2nnc(SCc3cc(=O)[nH]c4ccccc34)n2-c2ccccc2)cc1,10µM*,?
O=C(NCCCN1CCOCC1)C(=O)NCC1CCCO1 (stereo not drawn),-8%,-10%
Cc1oc(-c2ccc(Cl)cc2)cc1C(=O)/C(C#N)=C/Nc1ccccc1,28%,1%
O=C(COC(=O)c1ccc(Cl)nc1)NCc1cccs1,-9%,i
O=c1cc(CSc2nnc(-c3cccnc3)n2-c2ccccc2F)nc2sccn12,3%,-16%
CCCCN(CC)Cc1ccc(CNS(=O)(=O)c2cc3c(cc2Cl)NC(=O)CO3)o1,-8%,i
Cc1cc(C(=O)NNC(=O)CCCOc2ccccc2)c(C)o1,4%,-14%

# Compounds above that contain an aryl methoxy group, in the order listed:
SMILES,Vaccinia Venus,Vaccinia mCherry
COc1ccc(NC(=S)N2CCC(C(=O)N3CCCCCC3)CC2)cc1,-8%,-18%
COC(=O)C1=C(C)NC(C)=C(C(=O)OC)C1c1ccc(OC(=O)c2oc3ccccc3c2C)c(OC)c1,-21%,-11%
COc1ccc(Cc2nc3ccccc3[nH]c2=O)cc1,1%&-1%,0%&-9%
COc1ccc(NC(=O)CCN2C(=O)C3C4CCC(C4)C3C2=O)cc1 (stereo not drawn),0%,-8%
COc1ccc(C(=O)c2c3ccccc3[n+]([O-])n2CCC(N)=O)cc1,0%,-4%

# Additional structures follow.
SMILES,Vaccinia Venus,Vaccinia mCherry
COc1ccc(OC)c2[nH]c(=O)c(CCNC(=O)c3ccc(S(=O)(=O)N4CCCC4)cc3)cc12,-12%,-6%
CCOC(=O)Cn1c(=O)oc2cc(S(=O)(=O)Nc3ccc(F)cc3)ccc21,-12%,i
Cc1ccc2cccc(Oc3ncnc4scc(-c5ccc(Cl)cc5)c34)c2n1,-15%,-9%
Cc1cc(C)c(NC(=O)CCS(=O)(=O)c2cc3c(cc2Cl)NC(=O)CO3)c(C)c1,-5%,-18%
O=C(CN1C(=O)C2C3C=CC(C3)C2C1=O)Nc1cccc(S(=O)(=O)N2CCCC2)c1 (stereo not drawn),-23%,-7%
CCc1ccccc1C1C(=O)c2ccccc2C1=O,-19%,i
Cc1ccccc1NC(=O)C1C(=O)Nc2ccccc2C(=O)N1Cc1ccccc1 (stereo not drawn),-11%,-21%
Cc1ccccc1NC(=O)Cc1nnc(SCC(=O)N2CCN(c3ccccc3)CC2)n1C,-1%,.
O=C(CN(C(=O)CCC(=O)Nc1nccs1)c1ccccc1F)NCC1CCCO1 (stereo not drawn),-6%,.
CCc1ccc(NC(=O)Cn2c(=O)n(-c3cc(OC)c(OC)c(OC)c3)c(=O)c3ccccc32)cc1,-1%,5%
Cc1cccc(NC(=O)NNS(=O)(=O)c2ccc(F)cc2)c1,-1%,-7%
CSc1ccc(CNC(=O)c2ccccc2NC(=O)c2nsc3ccccc23)cc1,-23%,-8%
Fc1ccc(N/N=C2/CC(c3ccccc3)Oc3ccccc32)c(F)c1 (stereo not drawn),-10%,i
CCN1C[C@@H]2[C@@H]3C(=O)N(Cc4ccccc4)C(=O)[C@@H]3[C@](Cc3ccccc3)(C1=O)N2C(=O)c1ccc(C)cc1,-12%,i
c1ccc2sc(C3(N4CCCC4)CCCCC3)cc2c1,-14%,-24%
O=C(Nc1cc(Cl)ccc1Cl)C1CCCO1 (stereo not drawn),-13%,-8%
C#CCn1c2ccccc2c(=O)n1C(C)C,3%,-7%
Cc1ccc(OCc2ccc(C(=O)Nc3ccc(S(N)(=O)=O)cc3)o2)cc1,-7%,i
COC(=O)c1oc2ccc(Br)cc2c1-n1cccc1,-7%,.
O=C1c2ccc(-c3nc4ccccc4o3)cc2C(=O)N1Cc1ccccc1,-9%,-7%
Cc1cnc(CNC(=O)c2csc([C@H]3C[C@H](O)[C@@H](CO)O3)n2)cn1,3%,-4%
O=C(Nc1ccnn1C1CCN(Cc2ccc(Cl)cc2)CC1)C1CCCC1,-6%,-1%
Cc1ccc(P(=Nc2ccccc2)(N2CCOCC2)N2CCOCC2)o1,-10%,-7%
CC(C)c1cccc(C(C)C)c1NC(=O)COC(=O)[C@H](C)NC(N)=O,-1%,-3%
CC1CCN(c2ccc(C(=O)NCc3cccs3)cn2)CC1,-21%,-23%
COCCN(CC(=O)Nc1cccc(S(=O)(=O)N2CCCC2)c1)Cc1nc2ccccc2c(=O)[nH]1,-16%,i
Cc1ccccc1C(=O)NCC(c1cccnc1)N1CCc2ccccc21 (stereo not drawn),2%,1%
Cc1ccc(C(=O)CSc2ncnc3sc4c(c23)CCC(C)C4)cc1 (stereo not drawn),-9%,-9%
COc1ccccc1/C=C/c1cncc(/C=C/c2ccccc2OC)c1,-22%,?
Cc1ccc(-n2c(=O)[nH]cc(C(=O)Nc3ccc4c(c3)OCCO4)c2=O)cc1C,-13%,-21%
Cc1cc2c(cc1NC(=O)c1ccccc1Cl)n(C)c(=O)c(=O)n2C,-3%,-12%
Cc1ccc(-c2onc(C)c2C)cc1S(=O)(=O)NC1CCCCC1,-27%,i
CCOCCc1nnc(NC(=O)C(C)Oc2ccccc2)s1 (stereo not drawn),-21%,i
CCOc1cc(CNCCN(C)C)c(Cl)cc1OCC(=O)NCCc1ccccc1,-7%,.
O=C(COc1ccc(C(=O)NCCN2CCOCC2)cc1)Nc1cccc(C(F)(F)F)c1,-7%,-13%
COc1cc(C(=O)N(Cc2ccccc2)c2cccc(C)c2)ccc1OC(F)F,-15%,-2%
CC(C)N(Cc1ccccc1)C(=O)COC(=O)c1ccc2c(c1)OCCO2,-12%,-11%
COc1ccc(-n2nc(C(=O)NCC(=O)NCC3COc4ccccc4O3)c3ccccc3c2=O)c(OC)c1 (stereo not drawn),-8%,-16%
Brc1ccc(-c2csc3ncnc(-n4nnc5ccccc54)c23)cc1,-23%,-11%
Cc1ccccc1S(=O)(=O)Cc1ccc(C(=O)NCCCN2CCC(C)CC2)o1,-6%,-16%

# Not a retest: entries from further up.
SMILES,Vaccinia Venus,Vaccinia mCherry
Cc1cnc(CNC(=O)c2csc([C@H]3C[C@H](O)[C@@H](CO)O3)n2)cn1,3%,-4%
O=C(Nc1ccnn1C1CCN(Cc2ccc(Cl)cc2)CC1)C1CCCC1,-6%,-1%
Cc1ccc(P(=Nc2ccccc2)(N2CCOCC2)N2CCOCC2)o1,-10%,-7%
CC(C)c1cccc(C(C)C)c1NC(=O)COC(=O)[C@H](C)NC(N)=O,-1%,-3%
CC1CCN(c2ccc(C(=O)NCc3cccs3)cn2)CC1,-21%,-23%

# Next part:
SMILES,Vaccinia Venus,Vaccinia mCherry
O=C(NCCCNC(=O)c1c(Cl)cccc1Cl)c1c(Cl)cccc1Cl,18%,i
CCCC(c1nnnn1CCOC)N1CCN(c2nc3ccccc3s2)CC1 (stereo not drawn),-5%,i
CC(C)CNC(=O)NC(=O)COC(=O)c1cc(F)cc(F)c1,1%,-13%
COC(=O)c1nn(Cc2ccccc2)c(=O)c2ccccc12,-11%,-10%
CCOC(=O)C(Cc1ccc(NC(=O)/C(=C\c2ccccc2)NC(=O)c2ccccc2)cc1)N1C(=O)c2ccccc2C1=O (stereo not drawn),-11%,-14%
CC1CN(c2oc(COc3ccc(Cl)cc3Cl)nc2C#N)CC(C)O1 (stereo not drawn),-28%,?
COCCCC/C(=N\OCCN)c1ccc(C(F)(F)F)cc1,-18%&-15%&-12%&-19%&-21%,-29%&-3%&-16%&-5%&-10%
O=C(NC(=S)NC1CCC(O)CC1)c1ccco1 (stereo not drawn),-8%,-12%
CCOc1ccc(-c2nc(-c3ccccc3)no2)cc1OCC,-5%,-13%
C[C@@H]1O[C@H](C2CCCCC2)Cc2[nH][nH]c(=O)c21,-17%,-14%
CC(C)NC(=O)[C@H]1N2C(=O)c3ccccc3C2SC1(C)C (stereo partly drawn),-5%,-16%
Cc1cccc(N/N=C/c2ccncc2)c1,-8%,i
Cn1c(SCC(=O)N2CCCCC2)nc2c([nH]c3ccccc32)c1=O,-19%,i
COc1ccc2c(C)cc(=O)oc2c1,-11%&0%,-1%
COc1ccc(CNC(=O)COC(=O)/C=C/c2cccc(Cl)c2)cc1,-1%,-21%
CCN(CC(=O)Nc1cc(Cl)ccc1C)C(=O)CC1CCCC1,-11%,-22%
COc1ccccc1CNC(=O)COC(=O)c1ccccc1-c1ccccc1,-23%,-4%
Cc1ccc(S(=O)(=O)N2CCN(C(=O)CC(C)C)CC2)cc1,-7%,-20%
CCOC(=O)c1cccc(NC(=O)c2c(N)n(C)c(=O)[nH]c2=O)c1,-11%,-16%
Cc1ccc(S(=O)(=O)NCC(=O)OC2CCOC2=O)cc1 (stereo not drawn),-5%,.

# Single records, from the list above. Order of values: Vaccinia Venus	Vaccinia mCherry
# CCOc1ccc(-c2nc(-c3ccccc3)no2)cc1OCC is entered as -5%	-13%
# COCCCC/C(=N\OCCN)c1ccc(C(F)(F)F)cc1 is entered as -18%&-15%&-12%&-19%&-21%	-29%&-3%&-16%&-5%&-10%
# CCCC(c1nnnn1CCOC)N1CCN(c2nc3ccccc3s2)CC1 (stereo not drawn) is entered as -5%	i
# CCOC(=O)c1cccc(NC(=O)c2c(N)n(C)c(=O)[nH]c2=O)c1 is entered as -11%	-16%
# COc1ccccc1CNC(=O)COC(=O)c1ccccc1-c1ccccc1 is entered as -23%	-4%

# (continued)
SMILES,Vaccinia Venus,Vaccinia mCherry
CCNC(=O)c1ccc(NC(=O)CC2SC(N3CCCC3)=NC2=O)cc1 (stereo not drawn),-7%,-6%
COc1ccc(-n2c(SCC(=O)Nc3ccc4c(c3)OCO4)nc3c([nH]c4ccccc43)c2=O)cc1,-2%,-1%
O=S(=O)(/N=C(/Nc1cccnc1)c1ccccc1)c1ccc(F)cc1F,-7%,-9%
O=[N+]([O-])c1ccc(S(=O)(=O)N2CCN(c3nc(-c4cccs4)nc4ccccc34)CC2)cc1,-12%,-15%
NC(=O)Nc1cccc2ccccc12,4%,-10%
Cc1cc(C)n2cc(CSc3nc4cc(Cl)ccc4o3)nc2n1,-12%,.
COC(=O)c1cc(C)sc1NC(=O)CN1CCN(C(=O)C2CCCO2)CC1 (stereo not drawn),-1%,-6%
COc1cccc(-n2c(SCC(=O)Nc3cccc(C)c3)nc3c([nH]c4ccccc43)c2=O)c1,-13%,-9%
CCc1ccc(NC(=O)Cn2cnc3sc(C)c(S(=O)(=O)N4CCOCC4)c3c2=O)cc1,-19%,i
COc1cc(/C=N/NC(=O)c2ccc(O)cc2)ccc1OCC(=O)N1CC(C)OC(C)C1 (stereo not drawn),-11%,i
CC[C@]12C(=O)N(C)C[C@H]([C@@H]3C(=O)N(C)C(=O)[C@@H]31)N2C(=O)c1ccc(C)cc1,-9%,-12%
Cc1ccc(S(=O)(=O)N2CCC[C@H]2C(=O)OCc2cc(=O)oc3cc(C)ccc23)cc1,3%,-15%
CN1CCN(C(=O)C2=C[C@H](c3csc4ccccc34)C[C@H](OCc3ccc(CO)cc3)O2)CC1,-15%,-2%
CN(c1ccccc1)S(=O)(=O)c1cccc(C(=O)OCC(=O)NCCCN2CCCC2=O)c1,-10%,i
c1ccc2sc(SCc3ccc(-c4nnco4)cc3)nc2c1,-17%,-21%
Cc1ccc2cc(C)c3nnc(SCC(=O)N4CCN(C(=O)c5ccco5)CC4)n3c2c1,-2%,i
COC(=O)/C=C1/S/C(=N/NC(=O)c2ccccc2)NC1=O,-1%,.
COc1ccc(Br)cc1CNC(=O)c1cnc2sc(N3CCCCCC3)nn2c1=O,-29%,i
COc1ccc(Br)cc1S(=O)(=O)Nc1ncn[nH]1,-9%,i
COc1ccc(-c2ccc(SCC(=O)N3CCCC3)nn2)cc1OC,-10%,-14%
COC(=O)c1ccc2c(=O)n(CCN3CCOCC3)c(=S)[nH]c2c1,-9%,0%
O=C1CC(c2ccc3c(c2)OCO3)CN1 (stereo not drawn),8%,5%
Oc1ccc2ccccc2c1C=NNc1ccccn1,?,?
CCc1cc2c(=O)[nH]c(Cc3ccc(OC)cc3)nc2s1,-17%,-15%
CC(C)(C)OC(=O)NCCCCCc1nnc(SCc2ccccc2F)o1,-17%,-22%
OC[C@@H]1CN(C2CCCC2)C[C@H](n2cnc3c(N4CCCC4)ncnc32)O1,1%,-4%

# High-throughput results from PubChem.
